Source: PubChem
TRPML1 agonist: agonists of human TRPML1 channel; AID 624414; TRPML1-expressing cells, Ca2+ dye fluorescence, FDSS; host cell line not named in the record; reference of the full effect not given here; activation, % (concentration not given with the values); 0.12% of 410,000 active; Q9GZU1; in the data active = activation above about 50%; inconclusive = about 30% to 50%; inactive = below about 30%; also: 0% is about no effect; the text of the record puts the active cut at 80%
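Tet-induced TRPML1-DL cells, 1,500 per well, cultured overnight, were loaded with a no-wash Ca2+ dye for 45–90 min. Calcium fluorescence was recorded on the FDSS for 110 s after compound addition, before the EC80 agonist (4 uM 54-4) was added.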
Sfp PPTase inh: Sfp phosphopantetheinyl transferase inhibition; Q9F4F7; Biochemical Sfp PPTase activity, qHTS; Potency, µM, for the others: max response, negative = inhibition, actives largely listed as inhibitors; 3.5% of 310,000 active; active = well fitted inhibition curve with a large enough effect; inconclusive = small, poorly fitted or top-dose-only effect, or another doubt; inactive = no such curve, though single readings can be large or run the other way;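 also: the enzyme is Sfp with the accession as filed and its product quenches rhodamine fluorescence; potency is read from the fitted curve at half-maximal effect; 0% = enzyme reaction without inhibitor and -100% = no enzyme wells; top concentration of the series not given in the record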
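Sfp 15 nM + cpd, 15 min RT; start w/ rhodamine-CoA 5 uM, BHQ-2-YbbR 12.5 uM (final); 50 mM Hepes pH 7.6, 10 mM MgCl2, 0.01% NP-40, 0.01% BSA; read 525/598 nm at 0 and 30 min.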
TRPML1 blocker: inhibitors of human TRPML1 channel | Q9GZU1 | TRPML1-inducible cells, Ca2+ dye fluorescence, FDSS; active compounds read low; inhibition of EC80 agonist-evoked calcium signal | activity change, negative = inhibition, % (concentration not given with the values) | 0.02% of 390,000 active | AID 624415; in the data active means activity change below about -50%; inconclusive means about -30% to -50%; inactive means above about -30%;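 also: stimulus is agonist 54-4 at its EC80 concentration; % is scaled to controls: 0 for no effect and ±100 for the full control effect; the text of the record puts the active cut at -80%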
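Tet-induced TRPML1-DL cells loaded with Ca8 no-wash calcium dye were read kinetically on FDSS. Compound addition was followed by EC80 agonist 54-4 (4 uM final); inhibition was read over 110 s.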
PINK1 expr mod: changes PINK1 expression; PINK1 immunofluorescence, high-content cytometry, 24 h; 0.2% of 410,000 active; AID 624263; Potency, µM (top dose mostly 76.6 µM), for inactives: at the top dose activation (PINK1 increase), actives largely listed as activators; active = well fitted activation curve with a large enough effect; inconclusive = small, poorly fitted or top-dose-only effect; inactive = flat fitted curve, though single readings scatter; cell line not stated here;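 also: potency is read from the fitted curve at half-maximal effect; % of control where 0% means no effect; nearly all actives have a fitted effect of over 65% in size; a mitochondrial uncoupler was the plate control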
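A stable cell line was treated with compounds at 5 concentrations for 24 hours, with CCCP as control. PINK1 levels and mitochondrial localization were measured by immunofluorescence with mitochondrial, cell and nuclear markers after fixation, read by laser-scanning cytometry.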
ClpP mod: qHTS Assay for Activators of ClpP. Potency, µM (titrated, usually from 57.5 µM), without a hit: top-dose activity change, negative = active. AID 651965, 2013. purified B. subtilis ClpP, FRET peptide cleavage, 20 min. 1.9% of 340,000 active; active = well fitted falling curve with a large enough effect; inconclusive = small, poorly fitted or top-dose-only effect; inactive = no such curve, though single readings can be large or run the other way; also: potency is read from the fitted curve at half-maximal effect; the source files actives as falling curves though it sought activators and does not explain the sign; nearly all actives have a fitted effect of over 65% in size; many hits overshoot -100%
Target sequence (P80244 whole entry, looked up): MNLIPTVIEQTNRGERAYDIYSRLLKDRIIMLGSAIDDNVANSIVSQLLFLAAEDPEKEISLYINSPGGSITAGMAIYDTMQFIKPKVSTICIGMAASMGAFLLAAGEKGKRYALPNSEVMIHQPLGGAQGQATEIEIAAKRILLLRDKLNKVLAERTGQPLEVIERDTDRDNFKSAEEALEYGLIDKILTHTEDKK
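Buffer: 100 mM Tris/HCl pH8, 100 mM KCl, 0.05% low protease BSA, 2.5% glycerol, 0.01% Tween-20. ClpP 10 microg/mL final; 20 min RT; delta FRET normalized to ADEP and DMSO controls.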
Menin-MLL FL inh: menin-MLL binding inhibition, fluorescein peptide; 290,000 tested, under 10 active; FP activity change, % at 61.4 µM; AID 1766; Fluorescence polarization, fluorescein-MLL peptide displacement from menin; inconclusive = falling polarisation curve, or a change in total fluorescence; inactive = total fluorescence flat and polarisation flat or rising; no compound was filed as active; the % refers to the polarisation; negative = inhibition;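 also: % of control where 0% means no effect; inhibitors lower the polarisation; unlabelled MLL peptide was the positive control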
TRPV1 PAM: potentiators of human vanilloid receptor 1 (TRPV1); Q8NER1; TRPV1-expressing cells, Fluo-8 calcium influx, capsaicin EC20 potentiation; host cell line not named in the record; control for the full effect not named in the record; potentiation, % at 8.33 µM; 0.02% of 320,000 active; active means potentiation above 80%; inconclusive means 30% to 80%; inactive means below 30%; also: 0% is about no effect
Target sequence (Q8NER1 whole entry, looked up): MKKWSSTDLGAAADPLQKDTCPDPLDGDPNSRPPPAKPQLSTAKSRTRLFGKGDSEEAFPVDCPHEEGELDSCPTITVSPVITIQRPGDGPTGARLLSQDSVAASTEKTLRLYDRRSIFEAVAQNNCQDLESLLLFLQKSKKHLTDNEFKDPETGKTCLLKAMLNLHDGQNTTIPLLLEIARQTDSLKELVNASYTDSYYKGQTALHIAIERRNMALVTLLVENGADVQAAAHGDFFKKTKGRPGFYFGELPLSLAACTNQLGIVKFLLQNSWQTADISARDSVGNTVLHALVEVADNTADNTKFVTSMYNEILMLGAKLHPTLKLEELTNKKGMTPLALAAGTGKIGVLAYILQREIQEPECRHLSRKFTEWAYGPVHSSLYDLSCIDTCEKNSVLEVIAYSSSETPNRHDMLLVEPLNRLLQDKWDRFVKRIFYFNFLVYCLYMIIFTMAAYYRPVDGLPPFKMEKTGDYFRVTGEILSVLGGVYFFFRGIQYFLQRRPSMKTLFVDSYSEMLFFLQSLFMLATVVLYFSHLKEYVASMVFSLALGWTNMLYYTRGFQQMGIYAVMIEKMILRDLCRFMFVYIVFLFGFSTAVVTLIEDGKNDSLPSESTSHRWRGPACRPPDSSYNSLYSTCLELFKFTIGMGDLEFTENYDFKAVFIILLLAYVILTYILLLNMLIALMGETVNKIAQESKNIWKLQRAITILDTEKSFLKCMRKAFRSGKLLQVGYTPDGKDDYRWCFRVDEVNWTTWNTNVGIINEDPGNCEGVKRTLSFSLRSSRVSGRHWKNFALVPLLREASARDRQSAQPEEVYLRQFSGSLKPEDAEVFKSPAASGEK
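Fluo-8 calcium influx in TRPV1-expressing cells, kinetic read (ex 480/em 520 nm). Compound added and read 3 min for agonist activity, followed by capsaicin at EC20 final and 2 min further read for enhancement.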
The depositor's hits bear a star; ? = inconclusive; / = not tested or not shown; & = joins results of further samples; [ ] = another dose, or the depositor's remark.

SMILES | TRPML1 agonist | Sfp PPTase inh | TRPML1 blocker | PINK1 expr mod | ClpP mod | Menin-MLL FL inh | TRPV1 PAM
O=C(O)c1[nH]c2ccc(Br)cc2c1CCN1C(=O)c2cccc([N+](=O)[O-])c2C1=O | 0.1 | 3% | -7 | 0.5% | -1.2% | 2.2 | 8
NS(=O)(=O)c1cccnc1Nc1c(Cl)cccc1Cl | -0.5 | 10% | -9 | 1.8% | 28µM* | 6.3 | -1
Cc1ccc(S(=O)(=O)N/N=C\C=C\c2ccccc2)cc1 | 5.9 | 17% | 2 | -1.3%[38.3 µM] | -1.5% | 0.5 | -4
C#CCOCCOCCOCCNc1nc(N2CCN(C(=O)C([C@@H](C)CC)n3cc(C(N)Cc4ccc(O)cc4)nn3)CC2)nc(N2CCN(C(=O)[C@H](CCC(=O)O)n3cc(C(N)Cc4ccc(O)cc4)nn3)CC2)n1 (stereo partly drawn) | -0.1 | -2% | 26 | 0.2% | 1.2% | 0.6 | 17
CCCc1cc(=O)oc2cc(OCC(=O)N3CCOCC3)c(Cl)cc12 | 0.3 | 2% | -7 | -2.1% | / | ? | 1
Cc1ccc(NC(=O)Nc2cnccn2)c(C)c1 | 0.4 | 9% | 11 | -0.9% | -18% | 1.5 | -6
CCN(CC)C(=O)C1CCCN(c2ccc([N+](=O)[O-])cc2/C=N/NC(=O)c2ccccc2)C1 (stereo not drawn) | -1.3 | -19% | -7 | 2.4% | -1.0% | 5.4 | -2
Cc1onc(-c2c(F)cccc2Cl)c1C(=O)NCc1ccc(S(N)(=O)=O)cc1 | -0.7 | / | 1 | -0.6% | 0.4% | / | -9
Cc1ccnc(NS(=O)(=O)c2ccccc2)c1 | / | -2% | / | -0.8% | 3.7% | 1.7 | 12
CC(=O)c1ccc(C(=O)N2CCc3c([nH]c4ccccc34)C2c2cccc(C)n2)s1 (stereo not drawn) | 0.9 | 19% | 41 | 0.9% | / | 0.2 | 5
O=C(CC1CCCC1)NCCc1cn2ccccc2n1 | 0.0 | 18% | -5 | -0.6% | 4.0% | -2.3 | -4
O=C(NCCCCCCNC(=O)OCCO)OCCO | -0.4 | 17% | 9 | 0.0% | / | 3.2 | 6

Record cards, as listed above.
`Cc1ccnc(NS(=O)(=O)c2ccccc2)c1` is listed as TRPML1 agonist = /; Sfp PPTase inh = -2%; TRPML1 blocker = /; PINK1 expr mod = -0.8%; ClpP mod = 3.7%; Menin-MLL FL inh = 1.7; TRPV1 PAM = 12
`CCN(CC)C(=O)C1CCCN(c2ccc([N+](=O)[O-])cc2/C=N/NC(=O)c2ccccc2)C1` (stereo not drawn) is listed as TRPML1 agonist = -1.3; Sfp PPTase inh = -19%; TRPML1 blocker = -7; PINK1 expr mod = 2.4%; ClpP mod = -1.0%; Menin-MLL FL inh = 5.4; TRPV1 PAM = -2

(next part)
SMILES | TRPML1 agonist | Sfp PPTase inh | TRPML1 blocker | PINK1 expr mod | ClpP mod | Menin-MLL FL inh | TRPV1 PAM
CSC1=C(C#N)C(CC(C)C)C2=C(CCCC2=O)N1 (stereo not drawn) | -0.4 | 7% | -2 | -0.5% | -4.2% | 2.1 | -11
Cc1ccc(NC(=O)Cn2c(CCC(=O)O)ccc2-c2cccs2)cc1Cl | 0.6&0.7 | 40µM* | -17&-4 | 0.2%&0.0% | -27% | 11 | 8
COc1ccccc1N1CCN(CC(=O)Nc2ccccc2C(=O)NC(C)c2ccccc2)CC1 (stereo not drawn) | 0.6 | / | 27 | 0.5% | -0.8% | / | -12
CCOC(=O)C1=C(O)C(=O)N(c2ccc(S(N)(=O)=O)cc2)C1c1ccccc1 (stereo not drawn) | 0.6 | 9% | 53 | -0.9% | ? | 2.2 | -1
CCOC(=O)c1c(NC(=O)COC(=O)c2ccccc2NC)sc(C(=O)N(C)C)c1C | 0.2 | -29% | 7 | 9.8% | 3.1% | / | 9
Cc1ccc(SCC(=O)NC(C)c2ccccc2)cc1 (stereo not drawn) | 1.0 | 4% | 0 | -0.8% | 0.9% | -1.7 | -9
CCC(=O)Nc1nnc(SCc2cc(=O)c3cc(C)ccc3[nH]2)s1 | 1.3 | / | 8 | 0.5% | -6.7% | / | /
CCOC(=O)[C@]12CCCC=C1N(Cc1cccc3ccccc13)C(=O)[C@H](CC(=O)N1CCN(C(=O)c3ccco3)CC1)C2 | -0.7 | / | / | 0.3% | 0.8% | / | /
CCO[C@H]1OC(C(=O)NC2CC2)=C[C@@H](c2c[nH]c3ccccc23)[C@@H]1CCCO | -1.4 | 9% | -8 | 0.4% | 1.3% | 1.9 | ?
CC(=O)Nc1ccc(NC(=S)NC(=O)c2ccc([N+](=O)[O-])cc2)cc1 | -0.2 | -13% | 45 | 3.6% | 6.3µM* | -0.4 | -2
CNC(=S)NNC(=O)c1sccc1OCc1ccccc1 | -0.6 | 11% | -1 | 3.2%[38.3 µM] | 3.6% | -0.5 | -27
CC1CN(C(=O)CCN2C(=O)c3ccccc3C2=O)CC(C)O1 (stereo not drawn) | -0.9 | 1% | -5 | -0.4% | -1.5% | 3.0 | 3
COC(=O)c1ccsc1NC(=O)CN1CCN(Cc2ccc3c(c2)OCO3)CC1 | 0.0 | 1% | 0 | -1.8%[38.3 µM] | 0.3% | 1.2 | 2
COc1ccccc1N1CCN(C(=O)c2cc(CC(C)C)on2)CC1 | -1.1 | / | 20 | 2.3% | -0.2% | / | /
COc1ccc(CCNC(=O)CSc2ncnc3c2oc2ccccc23)cc1OC | 0.2 | -7% | 3 | -1.6% | -2.4% | 16 | 13
CCCn1c2ccccc2c2cnn(CC(=O)N3CCCC(C)C3)c(=O)c21 (stereo not drawn) | 0.3 | / | 36 | ? | 4.6% | / | /
O=S(=O)(c1cccc(-c2nnc3n2CCCCC3)c1)N1CCOCC1 | 0.2 | 26% | -11 | -1.9% | / | -1.0 | -6
CCOC(=O)c1cccc(NC(=O)CCc2c(C)nc3c4cccnc4nn3c2C)c1 | -0.3 | / | 2 | 0.7% | 3.8% | / | /
CCc1nnc(NC(=O)c2ccco2)s1 | 0.0 | / | 27 | 3.4% | 1.1% | / | /
Cc1ccc(C2(c3noc(CN4CCOCC4)n3)CCCC2)cc1 | -0.6 | 12% | -1 | 1.0% | -2.4% | -0.2 | -5
COC(=O)N1CCC2(CC1)CCN(c1cccc(-c3ccccc3)c1)CC2 | / | ? | / | 1.0% | / | 1.7 | /
CC(C)(C)OC(=O)N(CCc1ccccc1)Cc1ccccc1OCc1cccc(NC(=O)C2CC2)c1 | 0.4 | / | -5 | 3.3% | -6.1% | / | /
COc1ccccc1NC(=O)Cn1c(=O)c(CNc2ccccc2)cc2cc(OC)c(OC)cc21 | 4.0 | / | -21 | 3.4% | 3.7% | / | /
Cc1cccc(C)c1NC(=O)C[n+]1cc(-c2ccccc2)n2c1CCC2 | 0.1 | 3% | -14 | -0.8% | -1.7% | -1.1 | 7
COc1ccc(-c2nc3sc(CCNC(=O)c4cc(Cl)ccc4OC)c(C)n3n2)cc1 | 0.3 | / | -5 | -0.2% | -1.8% | / | /
O=C(Nc1ccc2c(c1)CCC2)c1ccc(F)c(S(=O)(=O)N2CCOCC2)c1 | 1.3 | 2% | -18 | 3.1% | -10% | 0.1 | -16
COc1ccc(-c2cnc3c(c2)C(=O)N([C@H](C)CO)C[C@@H](C)[C@@H](CN(C)C(=O)NC2CCCC2)O3)cc1 | -0.1 | / | 8 | 0.3% | -18% | / | /
NC(=O)C1CCN(C2CC(=O)N(c3ccc(F)c(Cl)c3)C2=O)CC1 (stereo not drawn) | -0.3 | 11% | 0 | -0.1% | -2.0% | -0.9 | 22
CCOC(=O)c1[nH]c2ccccc2c1NC(=O)c1ccc(Br)cc1 | -0.5 | / | 1 | 8.9% | -5.5% | / | /
Cn1c(SCC(=O)O)nnc1-c1ccc(NC(=O)c2ccc(Cl)c(Cl)c2)cc1 | 1.6 | 12% | 24 | 3.4% | / | -6.5 | -15
Cc1cc(NCCCn2ccnc2)n2nc(C)c(-c3ccccc3)c2n1 | 1.2 | -5% | 4 | -3.3%[38.3 µM] | -28% | 2.4 | -3
Cc1cccc(C(=O)Nc2ccc(C(=O)OCc3cc(=O)n4nc(C5CC5)sc4n3)cc2)c1 | 0.0 | / | -6 | 0.2% | -19% | / | /
CCOc1ccc2nc3cc(N=Nc4ccc(N)nc4N)ccc3c(N)c2c1 | 5.8 | / | 10 | -7.2% | 1.4% | / | /
Cc1cc2c(cc1S(=O)(=O)CCC(=O)N(C)Cc1ccccc1)OCC(=O)N2 | 0.1&3.6 | 1% | 14&-10 | -0.6%&-2.0% | -2.8%&-1.5% | -2.3 | -8
CCn1cc(S(=O)(=O)Nc2ccccc2C(F)(F)F)cn1 | -0.7 | 12% | -5 | -0.6% | / | -0.8 | 13
CC(=O)Oc1ccc2oc(=O)c3c(c2c1)CCCN3C(=O)CN1CCN(c2ncccn2)CC1 | 0.7 | 15% | 7 | -0.5% | -7.5% | 1.5 | 12
COc1ccc(NC(=O)NC(C)c2ccncc2)cc1OC (stereo not drawn) | 0.6 | 16% | -6 | 11µM* | -1.2% | 0.3 | 16
CCc1ccc(OC2(C)CCN(Cc3ccc(SC)cc3)C2)cc1 (stereo not drawn) | -0.1 | / | 15 | ? | 2.9% | / | /
CCCCN1C(=O)c2[nH]nc(-c3ccccc3O)c2C1c1ccc(OCc2ccccc2)c(OC)c1 (stereo not drawn) | 2.1 | / | 46 | 2.4% | -6.2% | / | /
CCOC(=O)C1CCN(C(=O)/C(=C/c2ccccc2)NC(=O)c2ccccc2)CC1 | -0.4 | -4% | 17 | 1.8% | -2.8% | 2.1 | 4
Cc1cc(C(=O)CCC(=O)N2CCN(c3ccccc3O)CC2)c(C)s1 | 0.7 | / | 3 | 1.1% | 3.0% | / | -15
CN(Cc1ccccc1)C(=O)COC(=O)c1ccccc1Nc1ccccc1 | 1.9 | 6% | 14 | 0.8% | -1.3% | 2.1 | 13
c1ccc(-n2c(Cc3cccnc3)nc3cnccc32)cc1 | 0.4 | / | -17 | -5.1% | -5.5% | / | /
N#Cc1c(-c2cccs2)cc(-c2ccccn2)nc1N | 0.1 | 10% | -8 | 4.6% | 13µM* | 0.0 | 1
CC1(Cc2ccc(S(C)(=O)=O)cc2)C(=O)Nc2ccc(Cl)cc21 (stereo not drawn) | 0.7 | / | -14 | 0.3% | -2.1% | / | /

Rows were taken by chance; overall some 4.4% were active at least once.
